Screens (PubChem)
Calb FLC: affects C. albicans growth with fluconazole | growth inhibition, % (test concentration not listed) | hit rate 0.57% among 300,000 | C. albicans CaCi-2 (fluconazole-resistant clinical isolate) + fluconazole, Alamar Blue growth, 48 h | AID 1979;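 active means most replicates above 75%; inconclusive means exactly half above 75%; inactive means most below 75%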;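 further: all wells also contain fluconazole at 8 µg/ml as a sub-toxic cotreatment; 0% = median of DMSO wells and 100% = median of geldanamycin control wells; wells of about 8 µL received 7.5 nL stock; the first replicate is given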
Vif A3G: HIV-1 Vif–A3G interaction blockers – biochemical, TR-FRET, GST-Vif 1-94, biotin-A3G peptide, dose response retest, primary screen (AID 1117319) | TR-FRET GST-Vif / biotin-A3G peptide binding; higher % means a stronger effect; test concentration not given here; strong numbers were not always called active | inhibition, %; hits with a dose series show IC50 in µM | hit rate 0.57% among 260,000;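 active means above the screen mean plus three standard deviations and confirmed in dose response; inconclusive means results disagree or hit not tested in dose response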;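 further: Vif residues 1-94 fused to GST binding biotinylated APOBEC3G peptide 110-148; 0% = full assay without inhibitor and 100% = GST in place of GST-Vif; retest series ran down from 100 µM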
A1 inh: inhibitors of the anti-apoptotic protein A1, read as caspase activation. MEF A1-2A-BIM cells, Caspase-Glo 3/7 luminescence, 3 h; percent of clofoctol response, vehicle zero. caspase activation, % (no concentration beside the values). hit rate 0.066% among 330,000. AID 2462;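 active means over half of replicate activation scores above 10%, or exactly half above 10 with the replicate mean above 10; inconclusive means replicate mean below 10 yet half the replicates above 10; inactive means over half of replicates below 10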;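 further: wells of about 30 µL received 50 nL stock; many hits fall short of the cut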
MLL AF4-AF9 inh: blocks AF4 peptide binding to human AF9 | AID 651704 | hit rate 0.47% among 350,000 | inhibition, % at 10 µM | P42568 | AlphaScreen, biotin-AF4 peptide binding to FLAG-AF9;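 active means every replicate reaching a set inhibition limit, whatever the replicate mean, cut at about 25% in these data; inconclusive means mean inhibition reaches that limit but some replicates miss it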;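 further: 0% = plate neutral control median and 100% = total signal loss; the record names both 10 and 1 µM as test concentration; the first replicate is given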
Target sequence (P42568 whole entry, looked up): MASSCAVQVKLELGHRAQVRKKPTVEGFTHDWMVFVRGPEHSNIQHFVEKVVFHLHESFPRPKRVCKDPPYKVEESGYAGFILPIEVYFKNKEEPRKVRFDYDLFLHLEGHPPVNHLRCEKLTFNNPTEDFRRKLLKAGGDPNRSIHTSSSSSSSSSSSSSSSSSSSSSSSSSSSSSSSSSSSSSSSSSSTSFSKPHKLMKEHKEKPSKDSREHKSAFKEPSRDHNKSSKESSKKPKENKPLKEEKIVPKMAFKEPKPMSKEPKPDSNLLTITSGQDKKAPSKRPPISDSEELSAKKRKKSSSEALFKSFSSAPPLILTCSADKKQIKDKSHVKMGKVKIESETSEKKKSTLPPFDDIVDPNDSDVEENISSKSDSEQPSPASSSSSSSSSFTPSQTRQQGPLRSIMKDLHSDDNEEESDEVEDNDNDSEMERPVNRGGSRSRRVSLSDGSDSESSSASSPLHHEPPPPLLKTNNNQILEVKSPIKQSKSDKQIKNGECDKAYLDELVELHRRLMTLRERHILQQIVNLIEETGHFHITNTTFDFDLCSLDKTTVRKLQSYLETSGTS
RanGTP-Impb inh: inhibitors of RanGTP-importin-beta interaction, primary screen, biochemical, FRET, CFP-Ran, YFP-importin-beta, homogeneous; cell-free CFP-Ran/YFP-importin-beta FRET ratio; inhibition, % (concentration not given with the values); hit rate 1.1% among 300,000; AID 2216;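 active means most replicates above 15%; inconclusive means exactly half above 15%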;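 further: 0% = DMSO wells and 100% = Ran loaded with GDP instead of GTP; wells of about 40 µL received 100 nL stock; the first replicate is given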
Ecoli rRNA inh: selective bacterial rRNA inhibition in E. coli; GFP signal change (wild-type ribosome), % (test concentration not listed); hit rate 1.6% among 350,000; AID 720706; E. coli WT GFP vs humanized-ribosome RFP mutants, fluorescence, 24 h; stronger effect = lower value; DMSO median 0, no signal -100;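 active means significant combined selectivity score with lowered wild-type GFP, culture density cut under 30%, mutant RFP and density less affected; inactive means any of these conditions unmet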; further: one replicate is shown; some compounds called inactive have numbers as strong as hits
T cruzi inh: blocks replication of Trypanosoma cruzi; hit rate 1.4% among 300,000; T. cruzi beta-gal in NIH3T3, luminescence, 90 h; inhibition, % (test concentration not listed);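 active means mean inhibition across valid replicates above about 55%, limit read from the data; inconclusive means mean below that limit but half or more replicates reach it; inactive means mean below it, under half of replicates reach it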;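 further: signal also drops with host cell toxicity which is not excluded here; 0% = plate median of DMSO wells and 100% = zero luminescence signal; higher percent means less beta-gal luminescence so fewer parasites; stock transfer was 50 nL into about 50 µL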
Beta cell apopt: blocks beta cell apoptosis. hit rate 0.8% among 300,000. protection from apoptosis, % (concentration not given with the values). INS-1E cytokine-induced death, ATP luminescence, 48 h; percent of positive-control rescue, neutral wells zero;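 active means all replicates at 75% or more, or half of them and the mean; inconclusive means half reach 75% but not the mean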;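 further: 0% = cytokine-treated negative control wells and 100% = positive control rescue; higher means more ATP so stronger rescue from cytokine killing; wells of about 40 µL received 100 nL stock; the first replicate is given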
Ecoli rRNA inh OD600: recorded beside Ecoli rRNA inh, whose call it bears; OD600 change, %; measured here: OD600 growth;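 optical density of the mix in the first replicate; 0 = DMSO median and -100 = no signal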
Ecoli rRNA inh RFP: also measured in Ecoli rRNA inh; calls as there; RFP signal change, %; measured here: RFP humanized mutant strains;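 first replicate; 0 = DMSO median and -100 = no signal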
Active calls of the source: *; u = inconclusive; x = no result given; & = joins results of further samples.

SMILES	Calb FLC	Vif A3G	A1 inh	MLL AF4-AF9 inh	RanGTP-Impb inh	Ecoli rRNA inh	Ecoli rRNA inh OD600	Ecoli rRNA inh RFP	T cruzi inh	Beta cell apopt
COc1ccc(-c2nc(SC(CC(=O)NCc3ccccc3)c3ccc(OC)c(OC)c3)n[nH]2)cc1 (centres undefined)	-5	x	0.2	-4.0	u	4	6	1.8	1	-7
O=C(O)Cc1c[nH]c2cccc(O)c12	7	x	0.3	-2.4	-0.7	10	5	6.2	-7	-5
COc1ccc(-n2c(C)cc(C(=O)CSc3nnc(-c4ccoc4C)n3C)c2C)cc1	-6	-1%	0.6	x	2.4	x	x	x	20	-3
O=C(/C=C/c1ccco1)NCc1ccc2c(c1)OCO2	-9	u	0.5	-26	-1.3	5	10	-1.0	-13	1
CCOC(=O)c1c(-c2ccccc2)csc1NC(=O)c1cc(-c2ccccc2OC)on1	-20	x	0.3	-2.4	0.1	5	12	-6.3	16	5
Cc1ccc(CCNC(=O)C2CCN(S(=O)(=O)c3ccc4c(c3)oc(=O)n4C)CC2)cc1	1	-1%	-1.1	0.2	2.3	-2	25	0.7	10	-5
COc1cc2c(C)nc3onc(-c4ccccc4)c3c2cc1OC	-1	-5%	0.8	x	2.6	x	x	x	47	16
CC1CCc2nn(CC(=O)NCc3ccc4c(c3)OCO4)cc2C1 (centres undefined)	-17	19%	0.5	0.5	-2.1	-6	-4	-0.2	-9	-4
O=C(C1CC1)N1CCc2cc(Br)cc(S(=O)(=O)N3CCCCCC3)c21	2	3%	-0.1	x	-4.6	x	x	x	26	x
COc1ccc(-n2c(Cn3c(=O)sc4ccccc43)nnc2SCC(=O)N2CCCC2)cc1	x	6%	0.1	-1.3	x	-2	-4	2.6	x	-3
COc1ccc(-n2c(SCc3ccc([N+](=O)[O-])cc3)nnc2-c2ccc(C)cc2)cc1	7	x	-0.2	12	-0.6	13	22	-8.3	70*	9
Fc1ccccc1COc1ccc(/C=N/NC(=S)NCc2ccccc2)cc1	23	-3%	0.0	x	1.6	x	x	x	24	2
CC(=O)N1CCN(c2ccc(S(C)(=O)=O)cc2[N+](=O)[O-])CC1	3	-1%	0.7	-1.9	2.3	9	-5	-1.2	-4	2
CC(=O)N1N=C(c2ccco2)CC1c1ccc(C)cc1 (centres undefined)	10	8%	0.5	x	2.5	x	x	x	-24	-6
c1ccc(-c2nnsc2-c2ccccc2)cc1	8	3%	-0.1	-1.8	1.2	-2	-2	0.7	4	x
COc1ccc(CCNC(=O)Cn2cc(C(F)(F)F)cc(Cl)c2=O)cc1	11	x	0.1	-1.9	1.8	7	4	0.4	-5	-3
CCCn1c(C)cc(C(=O)COC(=O)c2cc(S(=O)(=O)NCC(C)C)c(Cl)cc2Cl)c1C	11	0%	-0.4	x	0.6	x	x	x	10	33
Cc1cc(C)c(C#N)c(Nc2ccc3c(c2)OCCO3)n1	4	16%	0.2	-4.5	1.4	11	9	0.2	-2	0
Cc1cc2c(=O)n(Cc3ccco3)c(SCC(=O)c3ccc(Cl)s3)nc2s1	11	-4%	-0.4	x	6.5	x	x	x	20	10
COc1cc(Br)cc2cc(C(=O)N3CCN(C(=O)c4ccco4)CC3)c(=O)oc12	-8	5%	0.6	x	-12	x	x	x	-6	-1
Cc1ccc(NC(=O)CC(C)S(=O)(=O)c2ccc3c(c2)NC(=O)CO3)c(Cl)c1 (centres undefined)	-15	x	1.0	-3.7	-3.3	-13	-19	-3.3	-5	-2
CCN(c1ccccc1)S(=O)(=O)c1ccc(OC)c(NC(=O)CNCCc2ccccc2)c1	0	-1%	-0.7	-22	0.3	-19	-20	12	58*	45
NC(=O)C1CCCNC1 (centres undefined)	x	9%	0.6	-4.3	0.2	9	10	5.6	-21	-9
CCCn1nc2cc(C(=O)NCC34CC5CC(CC(C5)C3)C4)ccc2c1OCC	-1	2%	0.3	-4.4	u	-13	-28	9.2	3	-6
CCOC(=O)COc1cc(N)c(Cl)cc1Cl	6	x	-0.4	2.4	-0.2	-2	0	-0.1	3	x
C=CCn1cc(C(=O)NCCN(CC)CC)c(=O)c2cc(S(=O)(=O)N3CCCCCC3)ccc21	0	x	-1.6	1.1	-0.7	0	-1	-1.1	24	-3
O=C(COC(=O)c1cnccn1)c1ccc(Cl)c([N+](=O)[O-])c1	-2	-10%	-0.7	-2.9	-2.7	3	9	-1.1	-26	1
CCOC(=O)N1CCN(C(=O)CCC2CCCC2)CC1	5	21%	1.2	-0.4	-7.7	6	8	1.1	-1	-4
COc1ccc(/C=C/c2nc3ccccc3c(=O)o2)cc1	-13	x	-8.2	1.8	0.9	-20	-20	-4.1	-7	-6
COc1ccc2cc(C3(C)NC(=O)N(CC(=O)N4CCCCC4)C3=O)ccc2c1 (centres undefined)	x	-3%	1.6	-1.8	x	-6	-14	1.5	x	-6
COc1cc(C(=O)N2CC(C)OC(C)C2)c([N+](=O)[O-])cc1OC (centres undefined)	0	6%	1.0	-41	0.4	15	9	0.6	-6	-4
CC(C)n1nc(C(=O)Nc2nnc(SCc3c(Cl)cccc3Cl)s2)c2ccccc2c1=O	-12	-4%	0.9	x	0.9	x	x	x	-12	-6
Oc1ccc(NCc2ccccc2OCc2ccccc2)cc1	0	4µM*	-1.9	-9.7	-2.4	0	8	23	-21	0
O=C(CSc1nnc(-c2ccccc2)n1C1CCCCC1)Nc1ccc(S(=O)(=O)Nc2ccccn2)cc1	1	-7%&3%	0.0	x	-4.5	x	x	x	1	-12
COc1ccc(C2SCCN2S(=O)(=O)c2ccccc2)cc1OC (centres undefined)	30	4%	0.3	x	-2.0	x	x	x	14	-1
O=[N+]([O-])c1ccc(/C=N/NC2=NS(=O)(=O)c3ccccc32)cc1	-16	10%	0.4	3.4	4.6	11	3	3.2	-4	-6
COc1ccccc1NC(=O)c1cc([N+](=O)[O-])ccc1N1CCOCC1	-16	-4%	0.4	1.8	0.5	-3	-6	1.0	0	3
Cc1ccc([N+](=O)[O-])cc1S(=O)(=O)Nc1ccccn1	3	12%	0.6	x	2.8	x	x	x	-10	x
CCn1c(C)c(C(C)=O)c(N2CCN(C(=O)c3ccco3)CC2)nc1=S	10	4%	0.6	-4.6	4.6	6	9	3.4	-11	2
Cc1ccc(N2C(=O)CSCC2=O)cc1	1	4%	0.5	x	-2.1	x	x	x	-24	0
CCOC(=O)c1ccccc1NC(=O)CSc1nnnn1C1CCCCC1	2	26%	0.1	x	-6.2	x	x	x	17	5
O=C(Nc1ccccc1)N(Cc1ccccc1)C1=NCCS1	-3	-11%	-1.3	x	3.1	x	x	x	x	-2
C[C@H](CO)N1C[C@H](C)[C@@H](CN(C)C(=O)Nc2ccccc2)Oc2ccc(NC(=O)Cc3ccccc3)cc2C1=O	x	x	-0.5	-0.2	x	7&8	4&-2	-1.1&1.1	x	11
Cc1ccc(S(=O)(=O)C2(C(=O)N3CCN(C4CCCCC4)CC3)CC2)cc1	u	12%	-0.4	x	-1.4	x	x	x	-5	-14
O=C(C1CCC1)N1CCc2cc(S(=O)(=O)NCc3ccccn3)ccc21	-9	5%	-0.4	x	1.5	x	x	x	12	2
Cc1ccc(S(=O)(=O)n2nc(C)cc2C)cc1	13	28%	0.4	x	-2.8	x	x	x	2	0
CCN1CCN(CCNC(=O)C2CCCN(Cc3nc(-c4cccc(Cl)c4)oc3C)C2)CC1 (centres undefined)	-5	22%&-2%	-0.7	-1.5	2.7	8	7	1.1	23	6
CCOC(=O)C(NC(C)=O)(N1CCc2ccccc2C1)C(F)(F)F (centres undefined)	-2	2%	0.5	x	0.7	x	x	x	13	-10
Cc1ccnc2nc(C(=O)Nc3nccs3)nn12	u	0%	1.4	x	-0.2	x	x	x	-11	-4
CC1CCCCC12NC(=O)N(CC(=O)Nc1ccccc1-c1ccccc1)C2=O (centres undefined)	-3	1%	0.7	-14	-1.1	-10	-20	-5.8	-6	0
O=C(CCC1CCCCC1)NCCN1C2=NC[C@@H](Cc3ccccc3)N2C[C@H]1Cc1ccc(O)cc1	-7	x	0.3	u	6.4	-50	-81	-26	3	-5
N#Cc1c2n(c3c(=S)nc[nH]c13)CCCCC2	-14	1%	2.3	x	-3.8	x	x	x	-12	-3
COc1ccc(S(=O)(=O)Nc2ccc(C(F)(F)F)cc2)cc1OC	10	0%	0.5	x	-1.8	x	x	x	-5	-3
COc1ccc(S(=O)(=O)Nc2ccccc2SC)cc1C	11	-8%	-0.1	x	-2.2	x	x	x	2	0
COc1ccc(NC2CCCN(C(=O)c3c(C)noc3C)C2)cc1 (centres undefined)	-8	3%	2.0	0.7	-1.0	8	18	2.9	0	-1
Cc1ccc(OCC(=O)N/N=C/c2cn(Cc3ccccc3)c3ccccc23)cc1	x	u	-0.8	-7.3	x	-6	1	0.1	12	-7
CC1CCCC(NC(=S)NC(=O)c2cncc(Br)c2)C1C (centres undefined)	-6	25%	1.2	0.0	1.3	-2	0	12	-28	9
Cc1ccc(S(=O)(=O)N(C)c2ccc(OCC(=O)OCc3ccc(C#N)cc3)cc2)cc1	x	-16%	-0.7	-1.8	x	4	6	4.3	x	-2
Cc1ccc(Nc2ccc([N+](=O)[O-])cn2)cc1Cl	-7	x	2.5	-3.0	-4.1	5	10	0.3	18	1
Cc1ccc(CC(=O)NCc2ccc(Cl)cc2)cc1	2	-6%	0.7	x	u	x	x	x	-102	16
Further structures:
SMILES	Calb FLC	Vif A3G	A1 inh	MLL AF4-AF9 inh	RanGTP-Impb inh	Ecoli rRNA inh	Ecoli rRNA inh OD600	Ecoli rRNA inh RFP	T cruzi inh	Beta cell apopt
CCOC(=O)c1c(NC(=O)COC(=O)c2ccncc2)sc(C)c1C	-2	6%	0.3	-2.9	1.4	-4	0	-1.2	-2	3
CCSc1ccc2cc(OC)ccc2[n+]1CC	75*	x	-0.5	-1.6	0.4	19	24	-1.9	55*	-1
CCOC(=O)C(=O)c1c(-c2ccc(C)cc2)nc2ccccn12	18	-13%	0.2	2.4	1.7	-13	-16	-6.5	-8	3
CC(C)(C)NC(=O)Nc1ccc(Br)cc1	-1	3%	1.6	-2.7	-5.5	3	3	3.8	-7	0
COc1ccc(C(=O)NNC2=C(C(=O)C(F)(F)F)CCC2)cc1	0	4%	-0.8	0.7	0.5	2	3	3.9	-11	1
CSCCC(NC(=O)c1cccc(C)c1)C(=O)NNC(=O)c1cccs1 (centres undefined)	x	x	0.6	0.6	x	2	12	1.1	x	-3
COC(=O)[C@@H](Cc1c[nH]c2ccccc12)NC(=O)c1cc(=O)[nH]c2ccccc12	-12	x	1.0	-13	1.5	-3	0	-1.3	3	3

These rows are one share of the data; rates above refer to the full screens.
